Ecoli rRNA inh: reduced GFP signal of wild-type E. coli, primary screen, bacterial rRNA inhibitor project, GFP/RFP fluorescence, OD600, single point; E. coli WT GFP vs humanized-ribosome RFP mutants, 24 h; stronger effect = lower value; DMSO median 0, no signal -100; GFP signal change (wild-type ribosome), % (no concentration beside the values); 350,000 compounds, 1.6% hits; AID 720706, 2013;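 active = significant combined selectivity score with lowered wild-type GFP, culture density cut under 30%, mutant RFP and density less affected; inactive = any of these conditions unmet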; also: one replicate is shown; some compounds called inactive have numbers as strong as hits
T cruzi repl: inhibitors of intracellular T. cruzi growth, primary screen, luminescence, NIH3T3 host cells | T. cruzi beta-gal in NIH3T3, 90 h | inhibition, % (concentration not given with the values) | 300,000 compounds, 1.4% hits;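 active = mean inhibition across valid replicates above about 55%, limit read from the data; inconclusive = mean below that limit but half or more replicates reach it; inactive = mean below it, under half of replicates reach it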;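 also: signal also drops with host cell toxicity which is not excluded here; 0% = plate median of DMSO wells and 100% = zero luminescence signal; higher percent means less beta-gal luminescence so fewer parasites; stock transfer was 50 nL into about 50 µL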
AF4-AF9 inh: inhibitors of AF4 peptide binding to AF9, primary screen, biochemical, AlphaScreen, biotin-AF4 peptide, FLAG-AF9, single point. Protein AF-9 (Homo sapiens), P42568. inhibition, % at 10 µM. 350,000 compounds, 0.47% hits. AID 651704, 2012;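 active = every replicate reaching a set inhibition limit, whatever the replicate mean, cut at about 25% in these data; inconclusive = mean inhibition reaches that limit but some replicates miss it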;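 also: 0% = plate neutral control median and 100% = total signal loss; the record names both 10 and 1 µM as test concentration; the first replicate is given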
Target sequence (P42568 whole entry, looked up): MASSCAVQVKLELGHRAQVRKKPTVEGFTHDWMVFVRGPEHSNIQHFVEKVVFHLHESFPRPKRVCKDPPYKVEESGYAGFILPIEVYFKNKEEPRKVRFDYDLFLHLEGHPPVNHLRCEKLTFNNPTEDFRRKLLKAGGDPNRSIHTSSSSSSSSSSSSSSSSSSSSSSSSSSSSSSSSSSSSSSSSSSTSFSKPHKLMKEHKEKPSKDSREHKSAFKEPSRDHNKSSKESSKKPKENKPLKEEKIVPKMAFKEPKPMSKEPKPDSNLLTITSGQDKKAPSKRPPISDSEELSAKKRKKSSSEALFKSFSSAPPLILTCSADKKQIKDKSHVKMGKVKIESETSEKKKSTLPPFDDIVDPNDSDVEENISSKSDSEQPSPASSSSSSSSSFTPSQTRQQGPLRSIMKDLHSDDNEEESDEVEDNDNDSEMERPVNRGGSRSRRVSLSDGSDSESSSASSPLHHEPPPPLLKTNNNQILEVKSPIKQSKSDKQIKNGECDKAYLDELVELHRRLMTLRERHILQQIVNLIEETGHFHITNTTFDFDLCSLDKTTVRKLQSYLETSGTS
FGF22 binding: binders of human FGF22 protein, primary screen, FGF22 synaptogenesis inhibitor project, biophysical, thermal shift, single point; calls only at 9.99 µM; 340,000 compounds, 1.5% hits; recombinant FGF22 thermal shift, SYPRO orange fluorescence; percent of sucrose octasulfate shift, DMSO zero; Fibroblast growth factor 22 (Homo sapiens), Q9HCT0;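 active = melting point raised past a set limit in the mean and every replicate; inconclusive = no clear call; three in four hits are not shown here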
Target sequence (Q9HCT0 whole entry, looked up): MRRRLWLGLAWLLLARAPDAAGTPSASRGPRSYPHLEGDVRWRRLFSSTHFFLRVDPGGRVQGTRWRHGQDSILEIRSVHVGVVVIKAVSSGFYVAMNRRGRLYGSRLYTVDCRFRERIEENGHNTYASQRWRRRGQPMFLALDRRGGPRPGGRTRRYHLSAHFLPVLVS
Bfl-1 A1 inh: caspase 3/7 activation in MEF A1-2A-BIM cells, primary screen, A1 inhibitor project, cell-based, luminescence, HTS; 330,000 compounds, 0.066% hits; Caspase-Glo 3/7 luminescence, 3 h; percent of clofoctol response, vehicle zero; caspase activation, % (no concentration beside the values);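 active = over half of replicate activation scores above 10%, or exactly half above 10 with the replicate mean above 10; inconclusive = replicate mean below 10 yet half the replicates above 10; inactive = over half of replicates below 10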;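 also: wells of about 30 µL received 50 nL stock; many hits fall short of the cut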
Beta apoptosis: inhibitors of cytokine-induced beta cell apoptosis, primary screen, luminescence; AID 435005, 2010; INS-1E cytokine-induced death, ATP luminescence, 48 h; percent of positive-control rescue, neutral wells zero; protection from apoptosis, % (test concentration not listed); 300,000 compounds, 0.8% hits;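 active = all replicates at 75% or more, or half of them and the mean; inconclusive = half reach 75% but not the mean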;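 also: 0% = cytokine-treated negative control wells and 100% = positive control rescue; higher means more ATP so stronger rescue from cytokine killing; wells of about 40 µL received 100 nL stock; the first replicate is given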
UCH37 DUB inh: inhibitors of human UCH37 deubiquitinase, primary screen, biochemical, Ub-AMC cleavage, fluorescence; Ubiquitin carboxyl-terminal hydrolase isozyme L5 (Homo sapiens), Q9Y5K5; purified proteasome/UCH37; inhibition, % (concentration not given with the values); 330,000 compounds, 0.33% hits; AID 588478, 2011;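 active = mean of two replicates above 20%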;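 also: 0% = compound-free wells with enzyme and 100% = wells lacking proteasome; stock transfer was 100 nL into about 20 µL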
Target sequence (Q9Y5K5 whole entry, looked up): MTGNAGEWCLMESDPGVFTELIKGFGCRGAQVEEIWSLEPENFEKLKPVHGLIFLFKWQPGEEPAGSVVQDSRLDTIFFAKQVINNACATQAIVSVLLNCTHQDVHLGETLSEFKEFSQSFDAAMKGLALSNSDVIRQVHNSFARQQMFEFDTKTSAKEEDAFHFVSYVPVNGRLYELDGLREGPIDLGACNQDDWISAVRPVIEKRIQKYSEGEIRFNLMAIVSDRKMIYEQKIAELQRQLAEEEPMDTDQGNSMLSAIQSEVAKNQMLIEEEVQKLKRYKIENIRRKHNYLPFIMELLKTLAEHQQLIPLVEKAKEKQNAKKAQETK
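Test system – human UCH37 enzyme supplied as purified proteasome complex · Incubation – 30 min preincubation with enzyme, 25 min cleavage at room temperature · Detection – AMC fluorescence from Ub-AMC cleavage, excitation 355 nm, emission 460 nm · Benchmarks – no-proteasome wells (full inhibition) and compound-free wells (no inhibition)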
E coli growth: E. coli growth inhibition, primary screen, OD600; Escherichia coli growth, 23 h; stronger effect = lower value; OD600 absorbance (test concentration not listed); 330,000 compounds, 0.21% hits; AID 1053175, 2014;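 active = OD600 absorbance below the run mean of sample wells minus 3.6 SD, in any replicate, cut at about 0.56 in these data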;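 also: stock transfer was 300 nL into about 60 µL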
Ecoli rRNA inh OD600: recorded beside Ecoli rRNA inh, whose call it bears; OD600 change, %; measured here: OD600 growth;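 optical density of the mix in the first replicate; 0 = DMSO median and -100 = no signal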
Ecoli rRNA inh RFP: further read-out of Ecoli rRNA inh, marked with its call; RFP signal change, %; measured here: RFP humanized mutant strains;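 first replicate; 0 = DMSO median and -100 = no signal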
Starred values were filed as active, the others as inactive; i = inactive; ? = inconclusive; · = no result given. These rows are one share of the data. The share of hits here may be higher or lower than overall.

The line under a structure holds: Ecoli rRNA inh, Ecoli rRNA inh OD600, Ecoli rRNA inh RFP, T cruzi repl, AF4-AF9 inh, FGF22 binding, Bfl-1 A1 inh, Beta apoptosis, UCH37 DUB inh, E coli growth
- Cc1c(C(=O)O)cccc1-n1c(C)cc(/C=C2\C(=O)NC(=O)N(c3ccc4c(c3)OCO4)C2=O)c1C
  21, 31, 8.2, 8, -1.2, i, -1.2, -3, 9.7, 0.7
- CN1C2CCC1CC(OC(=O)c1ccc(Cl)cc1)(C(=O)O)C2 (stereo unspecified)
  ·, ·, ·, -31, 0.6, i, 0.6, 1, 3.1, 0.71
- CSc1ccc(C(=O)C2CCCN(Cc3ccn[nH]3)C2)cc1 (stereo unspecified)
  -1, -2, -3.4, 15, 7.9, i, 0.4, -6, 0.8, 0.7
- O=C(Cc1ccccc1)N1CCN(Cc2ccc([N+](=O)[O-])cc2)CC1
  -2, 4, -1.6, 17, -3.3, i, -0.1, -2, 3.5, 0.67
- CC1(C)CC(=O)c2cc(OCC(=O)N3CCN(Cc4ccccc4)CC3)ccc2O1
  10, 3, 0.9, 11, -9.6, i, -0.3, -10, -44, 0.72
- Fc1ccc(C(OCCN2CCN(CCCc3ccccc3)CC2)c2ccc(F)cc2)cc1
  -57, -78, -15, 36, 29*, i, -0.5, 102*, 4.5, 0.61
- CCOc1cc2c(cc1OCC)-n1cccc1C(c1ccc(OC)cc1)NC2 (stereo unspecified)
  3, -1, 2.1, 5, 5.6, i, 1.2, 6, 2.8, 0.65
- CCN(CC)S(=O)(=O)c1ccc(N=Cc2c(O)n(-c3ccccc3)c(=O)[nH]c2=O)cc1
  ·, ·, ·, -31, ·, ·, 0.4, -4, 4.4, 0.72
- C[C@]12CCC3C(CC[C@H]4CC(=O)CC[C@]34C)C1CCC2=O (stereo partly specified)
  -46, -57, 9.7, ·, -0.6, i, -0.2, 5, 4.7, 0.7
- COC(=O)C1=C(c2ccc(OC)c(OC)c2)C[C@@H]2CC[C@H]1N2C(=O)N1CCCC1
  10, -1, -6.7, ·, 0.0, i, -0.7, -3, 3.0, ·
- C=CCn1c(O)c(C(CC)=NCc2ccc3c(c2)OCO3)c(=O)[nH]c1=O
  10, -4, 3.2, 10, 6.4, i, -0.6, -9, -0.8, 0.66
- CCOC(=O)C(O)(c1ccc(NC(=S)NC(=O)c2ccc(Cl)cc2Cl)cc1)C(F)(F)F (stereo unspecified)
  ·, ·, ·, 25, ·, ·, -0.4, ·, 3.3, 0.71
- CC(C)(C)c1cc(OC(=O)Cc2ccccc2)ccc1O
  13, 4, 5.5, ?, 1.8, i, -0.1, -5, 2.6, 0.64
- O=C1/C(=C/c2ccc([N+](=O)[O-])cc2)N2CCC1CC2
  ·, ·, ·, -13, ·, ·, 0.0, ·, 1.2, 0.7
- Nc1cc(N2CCNCC2)c([N+](=O)[O-])cc1Cl
  ·, ·, ·, -4, ·, ·, -0.1, 6, 1.2, 0.7
- Cc1ccc2cc(C=C(C#N)C#N)c(Cl)nc2c1
  8, -2, 3.0, -3, -14, i, 0.9, -1, 2.0, 0.71
- CC(=NCCN1CCOCC1)c1c(O)n(-c2ccccc2C)c(=O)[nH]c1=O
  ·, ·, ·, 2, ·, ·, 0.5, 0, 0.7, 0.69
- COc1ccc(N2C(=O)/C(=C/c3ccc(C)o3)C(=O)NC2=S)c(OC)c1
  10, 5, -3.0, -8, -1.2, i, -0.2, -3, 2.1, 0.68
- CC1CCC(NCCc2ccc3c(c2)OCO3)CC1 (stereo unspecified)
  5, 4, -0.7, 31, -5.5, i, 0.9, ·, 6.0, 0.73
- Cc1ccc(Oc2cc(NN3CCCCC3)c([N+](=O)[O-])cc2[N+](=O)[O-])c([N+](=O)[O-])c1
  ·, ·, ·, -8, 0.5, i, 0.5, -1, 1.5, 0.73
- CC(=O)Nc1ccccc1C(=O)OCc1ccccc1F
  -22, -23, -2.7, 0, -1.1, i, -2.0, 3, -1.4, 0.7
- CC(=O)N(C)CC#CCN1CCC(O)CC1
  4, -3, -2.0, -23, 1.0, i, -0.1, -4, -0.3, 0.71
- O=C(O)CP(=O)(O)c1ccc(Cl)cc1
  ·, ·, ·, 6, ·, ·, 1.6, -3, 1.8, 0.7
- COc1ccc(C2C(C(=O)N3CCC4(CC3)OCCO4)CC(=O)N2c2ccc(OC)cc2)cc1 (stereo unspecified)
  ·, ·, ·, ·, ·, ·, -0.6, -1, 3.7, 0.71
- CCOC(C[n+]1c(-c2ccccc2)cc(C)cc1-c1ccccc1)OCC
  -20, -6, -11, 50, 0.1, i, -0.2, 3, -1.7, 0.67
- Cc1ccc(S(=O)(=O)NCCC(=O)Nc2ccc(Cl)cc2C(=O)c2ccccc2)cc1
  ·, ·, ·, 32, ·, ·, -0.2, -1, 3.7, 0.69
- CCN(CC)Cc1c[nH]c2ccccc12
  ·, ·, ·, ·, ·, ·, 0.1, 0, 1.2, 0.7
- C=CCOC(=O)C1=C(C)OC(N)=C(C#N)C12C(=O)N(CN1CCOCC1)c1ccccc12 (stereo unspecified)
  ·, ·, ·, -7, ·, ·, 1.1, -4, 5.9, 0.7
- Cc1ccc(N2Cc3ccccc3C2=N)cc1[N+](=O)[O-]
  8, 4, -1.7, -10, 2.6, i, -0.7, ·, 3.2, 0.67
- COc1cc(OC)c(OC)cc1CNCCc1ccc(OC)c(OC)c1
  5, 11, -5.5, -4, 6.3, i, 0.7, -9, 3.7, 0.72
- CCn1c(=O)n(CC)c2cc([N+](=O)[O-])c(N3CCNCC3)cc21
  3, -9, 0.2, -7, 1.4, i, 0.4, -11, 7.6, 0.74
- CN1C2CCC1CC(OC(=O)c1ccc(Cl)cc1)C2 (stereo unspecified)
  ·, ·, ·, -3, 1.5, ·, 0.7, ·, 1.7, 0.7
- C=CCn1c(O)c(/C(C)=N/N2CCCCC2)c(=O)[nH]c1=O
  15, 8, 1.1, -22, 0.3, i, 1.2, -2, 2.1, 0.65
- COCc1cc(OC(=O)N(C)C)nc(-c2ccccc2)n1
  12, 3, -0.4, -32, -1.3, i, 1.5, -8, 0.0, 0.71
- CCn1cc(CN2CCCC(C(=O)c3cccc(OC)c3)C2)c(C)n1 (stereo unspecified)
  25, 17, 0.9, 58*, -1.2, i, 0.3, -1, 3.4, 0.67
- COc1ccc(-c2nc3ccccc3c(=O)n2-c2cccnc2)cc1
  ·, ·, ·, -8, ·, ·, 0.5, 1, 6.1, 0.72
- COCCCN1CCN(c2nnc3n2-c2sc(Br)cc2C(c2ccccc2Cl)=NC3)CC1
  ·, ·, ·, -10, ·, ·, 0.1, -3, 3.6, 0.75
- CCCNS(=O)(=O)c1ccc(OCC(=O)N2CCN(Cc3ccccc3)CC2)cc1
  ·, ·, ·, 24, ·, ·, 0.3, 5, 3.0, 0.69
- C[C@]12CCC(=O)C=C1CC[C@@H]1[C@@H]2C(=O)C[C@]2(C)C(=O)CC[C@@H]12
  -14, -24, -0.4, -5, -0.8, i, 0.5, -1, 4.0, ·
- COc1ccc(-n2c(/C=C3/C(=O)Nc4ccccc43)nc3ccccc3c2=O)cc1
  5, 9, 2.4, 41, -2.2, i, -1.1, 9, 7.8, 0.71
- COc1cc(-c2ccc(N)c(OC)c2)ccc1N
  2, 0, 0.3, ·, ·, i, -0.3, 0, -4.9, 0.64
- CNC(=O)c1cccn(Cc2cccc(C(F)(F)F)c2)c1=O
  -1, 8, 0.4, -7, -1.3, i, 0.1, 7, -11, 0.71
- C[C@@H]1CC2(CCCC[N+]2(C)C)C[C@H]1C
  19, 19, -2.0, -8, -0.4, i, -0.2, 1, 1.8, 0.71
- CCC(=NCCC(c1ccccc1)c1ccccc1)c1c(O)n(C)c(=O)n(C)c1=O
  ·, ·, ·, -25, ·, ·, -0.1, -17, 5.6, 0.73
- Cc1cc(C)n2c(Br)c(CN3CC4CC(C3)c3cccc(=O)n3C4)nc2n1 (stereo unspecified)
  -1, 10, 0.7, 1, -12, i, -0.2, -5, -0.1, 0.7
- O=C(c1ccco1)c1cn(Cc2ccccc2Cl)c2ccccc12
  -16, -3, -2.1, 24, 8.0, i, 0.0, -5, -1.8, 0.73
- CC(=Nc1c(C)n(C)n(-c2ccccc2)c1=O)c1c(O)n(Cc2ccccc2)c(=O)[nH]c1=O
  ·, ·, ·, -7, ·, ·, 0.8, -5, 3.8, 0.63
- CCCC(C)C1(CC)C(=O)NC(=Nc2ccccc2)NC1=O (stereo unspecified)
  ·, ·, ·, -4, ·, ·, 0.2, -1, -0.1, 0.66
- OC1(c2ccc(F)cc2)CC2CCC(C1)N2Cc1nnnn1C1CCCC1 (stereo unspecified)
  -6, -2, -2.5, 6, -34, i, 0.1, 4, 6.3, 0.68
- CCCN1CCC(=O)N([C@H](CO)Cc2ccccc2)CC1
  ·, ·, ·, 7, ·, ·, 0.4, -9, 1.5, 0.79
- O=C1CCCC2=C1C(c1cccnc1)Nc1ccccc1N2 (stereo unspecified)
  ·, ·, ·, -7, -7.0, ·, 0.3, ·, 12, 0.72
- Cc1cc(O)c(CN2CC=C(c3ccccc3)CC2)cc1C(C)C
  -14, -39, -7.2, 5, 8.5, i, 0.4, 4, 0.9, 0.68
- CN(C)CCN(CC1CCCN(Cc2ccccc2F)C1)C(=O)Cc1ccc(F)c(F)c1 (stereo unspecified)
  14, 14, -0.2, 48, 4.2, i, 0.7, 4, 0.5, 0.68
- N#CC12C(N)=NC3(OCCO3)C1(C#N)C1=C(CCC1)NC2c1ccccc1 (stereo unspecified)
  ·, ·, ·, 1, ·, ·, -1.3, -6, 5.5, 0.7
- Cc1ccccc1OCCN=Cc1c(O)n(C)c(=O)n(C)c1=O
  ·, ·, ·, -10, ·, ·, 0.7, 0, 6.0, 0.67
- O=C(Cc1ccc(N(CCCl)CCCl)cc1)NC(Cc1ccc(Cl)cc1)C(=O)O (stereo unspecified)
  4, 9, 1.9, -8, -4.8, i, -0.1, 1, 3.7, 0.66

Compound profiles, from the list above. Order of screens: Ecoli rRNA inh, Ecoli rRNA inh OD600, Ecoli rRNA inh RFP, T cruzi repl, AF4-AF9 inh, FGF22 binding, Bfl-1 A1 inh, Beta apoptosis, UCH37 DUB inh, E coli growth
CC(C)(C)c1cc(OC(=O)Cc2ccccc2)ccc1O in the list: 13, 4, 5.5, ?, 1.8, i, -0.1, -5, 2.6, 0.64
Fc1ccc(C(OCCN2CCN(CCCc3ccccc3)CC2)c2ccc(F)cc2)cc1 in the list: -57, -78, -15, 36, 29*, i, -0.5, 102*, 4.5, 0.61

Assay outcomes: PubChem, several laboratories
